TRPML1 ag = qHTS for Agonists of the Human Mucolipin Transient Receptor Potential 1 (TRPML1). Mucolipin-1 (Homo sapiens), Q9GZU1. actives 0.12% (n = 410,000). activation, % (no concentration beside the values). AID 624414, 2012. TRPML1-expressing cells, Ca2+ dye fluorescence, FDSS; host cell line not named in the record; reference of the full effect not given here; in the data active = activation above about 50%; inconclusive = about 30% to 50%; inactive = below about 30%; note: 0% is about no effect; the text of the record puts the active cut at 80%
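In this qHTS format, compounds were pin-transferred onto Ca8-dye-loaded TRPML1-DL cells induced with Tet overnight, and intracellular Ca2+ fluorescence was recorded kinetically for 110 s after a 10 s baseline. A subsequent 4uM final 54-4 (EC80) addition followed by a second 110 s read served as the antagonist phase.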
TRPV1 potentiator = HTS Assay for Compounds that Act as Potentiators of the Vanilloid Receptor 1; Transient receptor potential cation channel subfamily V member 1 (Homo sapiens), Q8NER1; TRPV1-expressing cells, Fluo-8 calcium influx, capsaicin EC20 potentiation; host cell line not named in the record; control for the full effect not named in the record; potentiation, % at 8.33 µM; actives 0.02% (n = 320,000); active means potentiation above 80%; inconclusive means 30% to 80%; inactive means below 30%; note: 0% is about no effect
Target sequence (Q8NER1 whole entry, looked up): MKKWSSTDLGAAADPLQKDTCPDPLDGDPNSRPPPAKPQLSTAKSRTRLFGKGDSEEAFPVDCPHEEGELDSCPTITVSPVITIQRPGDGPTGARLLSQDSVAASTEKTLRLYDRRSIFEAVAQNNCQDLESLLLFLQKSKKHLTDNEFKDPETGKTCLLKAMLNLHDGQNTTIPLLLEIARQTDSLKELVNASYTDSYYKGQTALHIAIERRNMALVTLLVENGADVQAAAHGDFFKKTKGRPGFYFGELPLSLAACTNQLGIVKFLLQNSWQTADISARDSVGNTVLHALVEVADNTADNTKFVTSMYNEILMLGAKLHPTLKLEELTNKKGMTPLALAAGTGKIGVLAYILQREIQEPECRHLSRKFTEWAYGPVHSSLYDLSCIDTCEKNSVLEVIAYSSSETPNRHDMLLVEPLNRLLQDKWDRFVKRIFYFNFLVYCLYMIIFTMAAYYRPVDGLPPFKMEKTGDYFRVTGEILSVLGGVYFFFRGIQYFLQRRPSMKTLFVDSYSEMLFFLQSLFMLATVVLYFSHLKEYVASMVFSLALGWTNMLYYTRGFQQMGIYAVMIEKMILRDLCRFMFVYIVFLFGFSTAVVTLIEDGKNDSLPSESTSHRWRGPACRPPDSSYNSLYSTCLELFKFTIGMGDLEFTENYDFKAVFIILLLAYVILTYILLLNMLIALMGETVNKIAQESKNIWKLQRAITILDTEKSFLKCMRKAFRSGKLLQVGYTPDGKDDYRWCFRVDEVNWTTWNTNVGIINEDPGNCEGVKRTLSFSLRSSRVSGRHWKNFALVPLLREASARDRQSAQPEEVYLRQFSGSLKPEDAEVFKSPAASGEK
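Fluo-8 calcium influx in TRPV1-expressing cells, kinetic read (ex 480/em 520 nm). Compound added and read 3 min for agonist activity, followed by capsaicin at EC20 final and 2 min further read for enhancement.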
Six1-Eya2 blk = qHTS Assay for Inhibitors of the Six1/Eya2 Interaction | Homeobox protein SIX1 (Homo sapiens) + Protein phosphatase EYA2 (Homo sapiens), … | AlphaScreen GST-Six1/His-Eya2 binding, biochemical; active compounds read low; control for the full effect not named in the record | activity change, % (test concentration not listed) | actives 0.56% (n = 360,000); in the data active = activity change below about -65%; inconclusive = about -30% to -65%; inactive = above about -30%; note: % is set by controls: 0 for no effect and ±100 for the full control effect
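Six1/Eya2 binding was read as AlphaScreen signal after compounds were pinned into GST-Six1 plus His-tagged Eya2 (5X stock 250/500 nM) in pH 8.0 Tris/NaCl/TCEP buffer, beads added, then incubated 1 h, 37 C, dark.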
TRPML1 inh = qHTS for Inhibitors of the Human Mucolipin Transient Receptor Potential 1 (TRPML1). Mucolipin-1 (Homo sapiens), Q9GZU1. TRPML1-inducible cells, Ca2+ dye fluorescence, FDSS; active compounds read low; inhibition of EC80 agonist-evoked calcium signal. activity change, negative = inhibition, % (concentration not given with the values). actives 0.02% (n = 390,000). AID 624415, 2012; in the data active means activity change below about -50%; inconclusive means about -30% to -50%; inactive means above about -30%;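 note: stimulus is agonist 54-4 at its EC80 concentration; % is set by controls: 0 for no effect and ±100 for the full control effect; the text of the record puts the active cut at -80%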
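Calcium fluorescence in TRPML1-DL cells induced overnight with Tet: a 110 s read after compound pin addition, then a 110 s antagonist read after challenge with 54-4 at 4 uM final (EC80).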
CtBP-E1A inh = qHTS Assay for Inhibitors of the CtBP/E1A Interaction. CtBP / adenovirus E1A interaction (AlphaScreen). AlphaScreen GST-E1A/His-CtBP binding, 1536-well; active compounds read low; control for the full effect not named in the record. activity change, % (no concentration beside the values). actives 0.49% (n = 340,000); in the data active means activity change below about -65%; inconclusive means about -30% to -65%; inactive means above about -30%; note: % is set by controls: 0 for no effect and ±100 for the full control effect
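Homogeneous bead-based format: GST-tagged E1A captured on glutathione donor beads, His-tagged CtBP on nickel acceptor beads; compounds precede bead addition by 2 h at 37 °C.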
D2 PAM = Beta-Arrestin HTS for Positive Allosteric Modulators of the Human D2 Dopamine Receptor: Potentiators; D(2) dopamine receptor (Homo sapiens), P14416; actives 0.23% (n = 360,000); potentiation, % (no concentration beside the values); DiscoveRx D2 beta-arrestin cells, luminescence, 90 min; 100% = 57 uM dopamine signal; active = potentiation of 50% or more; inconclusive = 30% to 50%; inactive = 30% or less;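 note: compound concentration not given in the record; tested on top of an EC20 dose of dopamine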
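PathHunter D2 cells, attached overnight at 37 deg C, received compound in DMSO plus dopamine at EC20 (50 nM final) for 90 min at 37 deg C. Beta-arrestin recruitment was read as luminescence after 1 h with detection reagent at ambient temperature.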
Starred values were filed as active, the others as inactive; ? = inconclusive; · = not tested or not shown; & = joins results of further samples.

Molecule | TRPML1 ag | D2 PAM | Six1-Eya2 blk | CtBP-E1A inh | TRPML1 inh | TRPV1 potentiator
Cc1ccc(CN2[C@@H]3c4ccccc4C[C@@H]3OCCS2(=O)=O)cc1 | 1.8&0.0 | -12.4 | 13.7 | -16.3 | 36.2 | 13.0
COc1ccc(NC2CCCN(C(=O)CSc3ccccc3)C2)cc1OC (configuration not stated) | -0.1 | 9.5 | -5.2 | -7.5 | -9.8 | -13.0
CCc1nc2c(c(=O)[nH]1)C(CC)(CC)Cc1ccccc1-2 | 0.7 | -0.9 | -4.5 | -13.0 | 5.4 | 1.7
COc1cc(O)c(C(CCN2CCN(c3ccccc3)CC2)c2ccc3c(c2)OCO3)c(OC)c1 (configuration not stated) | 1.6&2.8 | -19.4 | ? | ? | -12.3&4.7 | 7.1
CCCC(=O)Nc1ccc(S(=O)(=O)N2CCc3ccccc32)cc1 | -0.5 | -13.2 | 4.2 | 4.6 | 5.0 | ·
Cc1ccc2[nH]c(=O)c(CC(=O)O)c(-c3ccccc3)c2c1 | 0.0 | 7.1 | -1.7 | · | 13.7 | 19.0
CC(C)[C@H](NC(=O)c1ccccc1F)C(=O)Nc1ccc(F)c(F)c1 | -0.1 | -4.2 | 6.4 | -1.1 | -8.6 | 14.2
COc1ccc(OC)c(Cc2nnc(CCC(=O)NC3CCCC3)o2)c1 | 0.4 | -4.8 | -0.1 | -17.4 | -7.7 | -8.5
O=S(Cc1ccc(Cl)cc1)CC(O)COCc1ccc(Cl)cc1 (configuration not stated) | 2.6 | 5.2 | 4.1 | 10.2 | -11.1 | -1.4
COc1ccccc1CNC(=O)C(C)NS(=O)(=O)c1ccccc1 (configuration not stated) | -0.9 | -31.1 | 6.7 | 0.4 | 7.5 | 12.4
O=C(COC(=O)[C@@H]1CCCN1S(=O)(=O)c1ccc(Cl)cc1)NC1CCS(=O)(=O)C1 (some centres not stated) | 2.3 | 0.7 | 11.1 | -11.4 | -13.6 | -7.0
c1ccc(-c2noc(CN3CCc4sccc4C3)n2)cc1 | -0.8 | 10.3 | 7.0 | 16.5 | -3.3 | 7.9
O=C(COC(=O)CNC(=O)c1ccco1)Nc1ccccc1OC(F)F | · | -6.1 | 3.5 | -10.8 | · | -1.9
COc1cc(S(=O)(=O)n2ccc(C)n2)c(OC)cc1Cl | 0.2 | -11.7 | 2.7 | 2.9 | 0.9 | 3.8
CCN(CC)CCN1C(=O)C(=O)/C(=C(/O)c2c(C)[nH]c(C(=O)OC)c2C)C1c1ccc(C)o1 (configuration not stated) | 0.1 | -12.6 | 7.5 | 4.8 | -4.5 | 7.5
O=C(CCCc1nc(-c2ccccc2Cl)no1)NC1CCCC1 | 0.9 | 2.5 | 2.6 | · | -6.9 | 27.7
O=C(CSc1nnc(-c2ccccc2)c(-c2ccccc2)n1)NCc1ccco1 | 4.1 | -3.4 | -19.6 | -17.5 | 31.0 | -1.5
COc1ccc(N(CC(=O)N/N=C/c2ccc(C(=O)O)cc2)S(=O)(=O)c2ccc(NC(C)=O)cc2)cc1 | 0.2 | -0.2 | -5.6 | · | -21.1 | ?
O=C(NCCCCCCNC(=O)c1ccccc1O)c1ccccc1O | -0.5 | -8.9 | -11.4 | -4.6 | 14.5 | -1.4
O=C(NCc1cccc(C(F)(F)F)c1)c1ccc(=O)[nH]c1 | -0.6 | -3.2 | 2.2 | 8.2 | 3.5 | 5.4

Further results.
Molecule | TRPML1 ag | D2 PAM | Six1-Eya2 blk | CtBP-E1A inh | TRPML1 inh | TRPV1 potentiator
O=C(c1c[nH]c(=O)n(-c2ccccc2)c1=O)N1CCc2ccccc21 | 1.5 | -0.1 | -2.8 | -0.7 | 4.1 | -1.8
COc1ccc(/C(N)=N/OC(=O)CN(C)S(=O)(=O)c2ccccc2)cc1 | -1.2 | -6.3 | 12.2 | 6.1 | 10.3 | -10.4
COc1ccc(NC(=O)c2oc3ccccc3c2NC(=O)C2CC2)cc1 | 1.0 | -15.1 | -0.8 | 1.7 | 24.0 | -18.9
O=C(CC1C(=O)N(c2ccc(F)cc2)C(=O)N1Cc1ccccn1)Nc1ccccc1 (configuration not stated) | 0.3 | -10.7 | 2.2 | 11.1 | -12.2 | 7.0
CC(=O)Nc1ccc(NCN2C(=O)C3C4CCC(C4)C3C2=O)cc1 (configuration not stated) | -0.3 | 8.6 | 0.0 | 3.8 | 3.2 | ·
O=C(c1cc(O)c(O)c([N+](=O)[O-])c1)c1ccccc1F | 1.7 | -16.0 | -7.8 | -27.4 | 47.4 | 0.1
COc1ccc(Cc2c(-c3ccc(F)cc3)nc3ccc(Br)cn23)c(C)c1 | -0.4 | -1.4 | -4.4 | 2.4 | 28.9 | ·
O=C(Cc1ccccc1)NCCSCc1ccco1 | -0.4 | -22.3 | -2.2 | 9.0 | 0.5 | -19.7
O=C(NCc1ccco1)C1(c2ccc(Br)cc2)CCCC1 | 0.7 | -9.7 | -1.8 | 3.4 | -11.4 | -12.5
Cc1nc(N[C@@H](Cc2ccccc2)C(=O)O)c2oc3ccccc3c2n1 | 0.8 | -3.9 | 3.0 | -2.6 | 1.5 | -2.9
COc1cc(/C=N/OCC(=O)NC2CCCCC2C)ccc1OCc1ccc(Cl)cc1 (configuration not stated) | -0.1 | -19.5 | 3.3 | 12.7 | 6.9 | -0.5
CCC1=NN(C(=O)Cc2ccccc2)C(O)(c2ccncc2)C1 (configuration not stated) | 1.4 | -1.2 | 10.3 | 6.5 | -15.8 | 7.1
Cc1cnc(C(=O)Nc2ccc(N3CCCCC3)cc2)cn1 | 0.9 | -4.2 | -0.9 | -1.4 | 12.9 | -0.5
Nc1ccc(C(=O)c2ccccc2C(=O)O)cc1Cl | 2.6 | -15.5 | 2.6 | 2.0 | -0.1 | -9.2
O=C(Nc1sccc1C(=O)N1CCOCC1)c1cccnc1 | 0.8 | -0.7 | -0.5 | 3.0 | 1.3 | 14.3
O=S(=O)(Oc1ccccc1)c1cccnc1 | -0.3 | -6.0 | 6.9 | 7.3 | 0.0 | ·
Cc1onc(-c2ccccc2Cl)c1C(=O)N(C)CC(=O)Nc1ccc(F)c(F)c1F | 0.1 | 15.6 | -7.9 | 1.2 | 6.4 | -1.6
COc1ccccc1CNC(=O)COC(=O)c1ccc(Cl)nc1 | 1.6 | -1.0 | 9.8 | 5.5 | -5.3 | ·
CNc1nc(C23CC4CC(CC(C4)C2)C3)cs1 | 0.0 | -9.1 | -16.8 | -6.4 | -9.1 | 0.6
COc1ccc(NC(=O)CSCc2cc(=O)n3nc(C4CC4)sc3n2)cc1 | -0.8 | 1.3 | 4.7 | · | 11.8 | -1.9

Next records:
Molecule | TRPML1 ag | D2 PAM | Six1-Eya2 blk | CtBP-E1A inh | TRPML1 inh | TRPV1 potentiator
CC1(C(=O)Nc2ccc3c(c2)OCO3)CCN1Cc1csc2ccccc12 (configuration not stated) | -0.8 | -3.7 | -26.0 | -26.3 | · | ·
O=C(O)CCCC(=O)N1N=C(c2ccccc2)CC1c1ccc2nccnc2c1 (configuration not stated) | 0.1 | 8.2 | 6.8 | 1.8 | -29.1 | -8.3
CC(C)(CO)NS(=O)(=O)c1ccc2c(c1)C(=O)c1cc(S(=O)(=O)NC(C)(C)CO)ccc1-2 | 0.0 | 0.0 | 12.6 | 4.3 | 9.6 | -10.9
CN(C(=O)COC(=O)CN1C(=O)c2ccccc2C1=O)c1c(N)n(Cc2ccccc2)c(=O)[nH]c1=O | -0.9 | -22.7 | -0.5 | 19.8 | 22.9 | 2.6
COc1cc(/C=C/C(=O)O)ccc1S(=O)(=O)N1CCCc2ccccc21 | -0.4 | 6.2 | 1.7 | 0.0 | -7.8 | ?
Cc1cc(C)c2nc(-c3ccccn3)cc(C(=O)NCc3ccc(S(N)(=O)=O)cc3)c2c1 | -0.7 | -0.6 | 4.0 | 13.7 | 7.2 | -4.3
NCCNc1ccc([N+](=O)[O-])c(NC2CC2)c1 | 0.8 | -33.8 | -6.4 | -9.8 | -2.5 | ?
O=C(CNC(=O)c1ccccc1)NCC(=O)OCC(=O)c1ccc(F)cc1 | 1.4 | 6.6 | 2.9 | 7.1 | 55.7 | -0.6
CC(C)C(NS(=O)(=O)c1ccccc1)C(=O)NC1CCCC1 (configuration not stated) | 0.9 | -8.5 | 14.6 | 5.2 | -6.9 | 0.1
CC(C)(C)n1nnnc1C(c1ccncc1)N(Cc1ccccc1)Cc1ccco1 (configuration not stated) | 5.4 | 12.6 | -8.2 | -0.6 | 5.1 | -9.0
CC(=O)Nc1ccc(C(=O)N(C)c2ccccc2)cc1 | -0.5 | -5.5 | -15.1 | 3.8 | 21.3 | 12.4
O=C1C(=O)N(CCN2CCOCC2)C(c2cccnc2)/C1=C(/O)c1ccc(Cl)cc1 (configuration not stated) | 0.0 | -4.4 | 5.8 | 4.8 | -0.2 | 0.4
Cc1ccnc(NS(=O)(=O)c2ccc(NS(=O)(=O)c3cc(Cl)ccc3Cl)cc2)n1 | -0.5 | -6.3 | 24.5 | -6.3 | -5.2 | -20.4
Cc1cc(Cl)ccc1OCCCC(=O)NCCN1C(=O)S/C(=C\c2cccnc2)C1=O | 1.6 | 5.0 | -6.1 | -1.0 | 16.9 | 18.5
CCOC(=O)N1CCC(N2C(=O)c3ccc(C(=O)NCc4ccco4)cc3C2=O)CC1 | -0.4 | -6.4 | 2.0 | -0.7 | 28.3 | 4.9
CC1(C)CC(=O)C(N=Nc2cccc([N+](=O)[O-])c2)=C(O)C1 | 0.4 | -22.2 | 0.7 | -2.3 | 27.7 | 11.2
CC[C@@H](C)[C@@H]1CN([C@@H](C)CN2CCC[C@H]2CN2C(N)=NC[C@@H]2Cc2ccccc2)C(=N)N1CCCC1CCCC1 | 0.9 | -37.0 | 1.4 | -27.8 | -14.9 | ·

Part of the list above, reduced to TRPML1 inh, CtBP-E1A inh and D2 PAM:
mol | TRPML1 inh | CtBP-E1A inh | D2 PAM
O=C1C(=O)N(CCN2CCOCC2)C(c2cccnc2)/C1=C(/O)c1ccc(Cl)cc1 (configuration not stated) | -0.2 | 4.8 | -4.4
Cc1ccnc(NS(=O)(=O)c2ccc(NS(=O)(=O)c3cc(Cl)ccc3Cl)cc2)n1 | -5.2 | -6.3 | -6.3
Cc1cc(Cl)ccc1OCCCC(=O)NCCN1C(=O)S/C(=C\c2cccnc2)C1=O | 16.9 | -1.0 | 5.0
CCOC(=O)N1CCC(N2C(=O)c3ccc(C(=O)NCc4ccco4)cc3C2=O)CC1 | 28.3 | -0.7 | -6.4
CC1(C)CC(=O)C(N=Nc2cccc([N+](=O)[O-])c2)=C(O)C1 | 27.7 | -2.3 | -22.2

Bioassay records as filed in PubChem BioAssay.
